Screens (PubChem)
NS1 inh – influenza NS1 inhibition | S. cerevisiae slowed by influenza A NS1, growth recovery by OD600 | Potency, µM (titrated, usually from 46.1 µM), for inactives: at the highest dose activity, positive = more growth | 0.4% of 270,000 active | AID 2326; active means well fitted rising curve with a large enough effect; inconclusive means small, poorly fitted or top-dose-only effect; inactive means no such curve, though single readings can be large or run the other way; note: nearly all actives have a fitted effect of over 50% in size
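Growth recovery, yeast-based: influenza A NS1 expressed in S. cerevisiae causes slow growth, and suppressors are detected by OD600. The parent strain without NS1 is used as positive control.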
RE007 growth inh – less growth of the S. pombe RE007 Vpr strain; S. pombe RE007 Vpr strain, BacTiter-Glo ATP luminescence, 24 h; control for the full effect not named in the record; Potency, µM (titrated, usually from 92.2 µM), for inactives: top-dose activity change, negative = less growth; 0.21% of 360,000 active; active = well fitted falling curve with a large enough effect; inconclusive = small, poorly fitted or top-dose-only effect; inactive = no such curve, though single readings can be large or run the other way;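 note: % is set by controls: 0 for no effect and ±100 for the full control effect; nearly all actives have a fitted effect of over 50% in size; the assay follows cell death caused by Vpr and the record does not say whether a fall means rescue or toxicity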
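Fission yeast RE007 carrying one integrated HIV-1 vpr copy, seeded at OD 0.01 in PMG+AL medium with 23 nL pinned compound. Grown 24 h at 30 degrees; viability read by BacTiter-Glo luminescence after 5 min.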
Cruzain inh noDet – inhibitors of Trypanosoma cruzi cruzain without detergent; P25779; purified cruzain, Z-FR-AMC fluorescence, no detergent; Potency, µM, without a hit: max response, negative = inhibition, most hits filed as inhibitors; 2.3% of 200,000 active;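 note: plate controls were enzyme without inhibitor for no effect and buffer without enzyme for full effect; nearly all actives have a fitted effect of over 40% in size; top concentration of the series not given in the record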
Target sequence (P25779 123-467 limits assumed): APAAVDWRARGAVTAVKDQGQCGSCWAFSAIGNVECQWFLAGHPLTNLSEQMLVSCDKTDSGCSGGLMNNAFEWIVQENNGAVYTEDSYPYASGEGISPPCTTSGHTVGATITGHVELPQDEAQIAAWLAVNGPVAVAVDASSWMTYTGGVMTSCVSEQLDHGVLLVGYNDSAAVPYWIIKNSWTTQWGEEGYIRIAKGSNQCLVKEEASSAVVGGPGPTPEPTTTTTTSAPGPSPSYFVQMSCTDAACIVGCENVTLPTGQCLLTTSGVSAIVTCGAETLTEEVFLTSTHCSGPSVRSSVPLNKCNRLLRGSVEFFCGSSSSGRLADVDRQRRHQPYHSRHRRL
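Detergent-free condition (0.00005% Triton X-100) in acetate buffer pH 5.5 with DTT. 1.5 nM enzyme and compound were pre-mixed 15 min, then 2 uM Z-FR-AMC substrate added; reaction progress from fluorescence change between first and third reads (60 s).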
2A StopGo – lowers the luciferase signal of an FMDV 2A StopGo reporter | 1.2% of 410,000 active | human cells with a luciferase reporter of 2A StopGo recoding; control for the full effect not named in the record | Potency, µM (titrated, usually from 57.9 µM), for the others: top-dose signal change, negative = less light; active = well fitted falling curve with a large enough effect; inconclusive = small, poorly fitted or top-dose-only effect; inactive = no such curve, though single readings can be large or run the other way; tested in HEK293T cells; note: % is set by controls: 0 for no effect and ±100 for the full control effect; nearly all actives have a fitted effect of over 45% in size; luciferase light after 4 h
Cruzain inh Det – inhibitors of Trypanosoma cruzi cruzain with detergent | 0.43% of 200,000 active | Potency, µM, for the others: max response, negative = inhibition, usual class: inhibitors | P25779 | purified cruzain, Z-FR-AMC fluorescence, 0.01% Triton;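 note: plate controls were neutral wells for no effect and buffer without enzyme for full effect; nearly all actives have a fitted effect of over 40% in size; top concentration of the series not given in the record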
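Steps: dispense cruzain (1.5 nM final) in acetate buffer pH 5.5 with DTT and 0.01% Triton X-100; pin-transfer compounds; incubate 15 min RT; add Z-FR-AMC (2 uM final); read fluorescence every 30 s, using the 60 s intensity change.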
Lassa entry inh – Lassa virus entry inhibition. Lassa virus pseudotype entry inhibition, cell reporter; control for the full effect not named in the record. Potency, µM (highest dose often 37.9 µM), for inactives: at the highest dose activity change, negative = inhibition, usual class: inhibitors. 1.2% of 300,000 active; active means well fitted inhibition curve with a large enough effect; inconclusive means small, poorly fitted or top-dose-only effect, or effect the other way; inactive means flat fitted curve, though single readings scatter; tested in HEK293 cells; note: % is set by controls: 0 for no effect and ±100 for the full control effect; nearly all actives have a fitted effect of over 50% in size; luciferase read-out
SARS PLpro yeast – blocks SARS-CoV papain-like protease in a yeast assay; S. cerevisiae expressing SARS-CoV PLpro, growth rescue; control for the full effect not named in the record; Potency, µM (series often up to 32.9 µM), for inactives: top-dose activity, positive = growth rescue; 0.19% of 330,000 active; AID 485353; active means well fitted rising curve with a large enough effect; inconclusive means small, poorly fitted or top-dose-only effect; inactive means no such curve, though single readings can be large or run the other way; note: 0% is about no effect; nearly all actives have a fitted effect of over 55% in size; growth read by luminescence after 48 h
MARV entry inh – blocks Marburg virus binding to or entry into cells; Potency, µM (highest dose often 37.8 µM), without a hit: top-dose activity change, negative = inhibition, usual class: inhibitors; 1.8% of 300,000 active; AID 540276; Marburg virus pseudotyped entry inhibition, cell reporter; control for the full effect not named in the record; about a third of the inactives were read at about 46 µM; active = well fitted inhibition curve with a large enough effect; inconclusive = small, poorly fitted or top-dose-only effect, or effect the other way; inactive = flat fitted curve, though single readings scatter; tested in HEK293 cells; about a fifth of its hits are not listed in these tables; note: % is set by controls: 0 for no effect and ±100 for the full control effect; luciferase read-out
The depositor's hits bear a star; ? = inconclusive; · = no result given; [ ] = remark or other dose. Unless noted, calls come from the whole dose curve; as a rule, active = well fitted curve in the direction sought with a large enough effect; inconclusive = small, poorly fitted or top-dose-only effect, or another doubt; inactive = no such curve, though single readings can be large; an effect the other way counts as inactive or inconclusive. Potency is the fitted concentration of half-maximal effect.

1	CCCn1ncc(OC)c(Cl)c1=O
2	CCN(C(=O)CSc1nnc(Nc2cccc(C)c2C)s1)C1CCS(=O)(=O)C1 (configuration not stated)
3	CN(C)C(=O)c1nc2ccc(Cl)cn2c1CN1CCCC(OCc2ccccc2)C1 (configuration not stated)
4	Nc1c2c(nc3ccc(Br)cc13)N(Cc1ccccc1)CC2
5	O=C(OCc1nnc(-c2ccccc2)o1)c1ccc(-n2cnnn2)cc1
6	Cc1ccc(N=Cc2cc(Cc3ccccc3Cl)cc([N+](=O)[O-])c2O)c(O)c1
7	COc1cccc(CNc2nnnn2C)c1OC
8	Cc1cccc(C(=O)Nc2cccc(NC(=O)c3ccccc3)c2)c1

assay / entry,1,2,3,4,5,6,7,8
NS1 inh,-2%,2%,0%,0%,·,·,-1%,5%
RE007 growth inh,6%,-5%,3%,-15%,7%,-27%,2%,2%
Cruzain inh noDet,-1%,6%,·,?,·,·,·,·
2A StopGo,3%,-19%,-21%,-10%,-8%,3%,-3%,7%
Cruzain inh Det,1.5%,-0.3%,·,-27%,·,·,·,·
Lassa entry inh,3%,0%,-1%,-2%,?,7%,?,-21%
SARS PLpro yeast,-7%,?,1%,15%,1%,-18%,11%,4%
MARV entry inh,2%,?,3%[46.1 µM],-35%,23%[46.1 µM],-2%,5%,28%

9	Cc1ccc(-c2cn3c(n2)sc2cc(C(=O)NCCCc4ccccc4)ccc23)cc1
10	Cc1ccc(NC(=O)/C(C#N)=C/c2cc(C)n(-c3ccc(N4CCOCC4)c([N+](=O)[O-])c3)c2C)c(C)c1
11	CCOC(=O)c1c(NC(=O)C(c2ccccc2)c2ccccc2)sc2c1C1CCN2CC1
12	COc1ccc(NC(=O)c2cc3nc(-c4ccccc4)cc(-c4ccccc4)n3n2)c(OC)c1
13	CCn1cc(C(=O)NC(C)C23CC4CC(CC(C4)C2)C3)cn1 (configuration not stated)
14	Cc1ccc2c(c1)N(C(=O)N1CCC(C(=O)NCCc3ccccc3)CC1)CC(C)O2 (configuration not stated)
15	COc1ccc(S(=O)(=O)NC2CC2)cc1Br
16	O=C(Cn1nnc(-c2cc(Cl)ccc2-n2cnnn2)n1)N1CCCc2ccccc21

assay / entry,9,10,11,12,13,14,15,16
NS1 inh,·,8%,-5%,?,-14%,·,19%,-17%
RE007 growth inh,·,-8%,10%,5%,19%,·,-5%,-1%
Cruzain inh noDet,?,?,-17%,?,25%,0%,·,?
2A StopGo,15%,?,-18%,-25%,-30%,-21%,14%,0%
Cruzain inh Det,-4.2%,-1.4%,-3.0%,3.0%,-2.0%,-2.2%,·,-6.7%
Lassa entry inh,-12%[46.1 µM],?,?,1%,-3%,21%[46.1 µM],·,?
SARS PLpro yeast,·,-2%,-9%,7%,25%,·,-9%,-6%
MARV entry inh,·,?,-76%,-10%,?,·,·,?

17	O=C(CSc1ccc2nnc(-c3cccnc3)n2n1)Nc1ccccc1C(F)(F)F
18	O=c1[nH]c(C2CCN(S(=O)(=O)c3ccc([N+](=O)[O-])cc3)CC2)nc2c1nnn2Cc1ccccc1
19	CC1(C)CC(=O)C2=C(C1)N=C1SCCC(=O)N1C2c1ccccc1 (configuration not stated)
20	CCCNC(=O)C1CCN(S(=O)(=O)c2ccc3c(c2)OCCO3)CC1
21	C=CCn1c(C)cc(C(=O)COC(=O)CNC(=O)c2ccccc2)c1C
22	O=C(NCc1ccncc1)C1CCN(S(=O)(=O)c2ccc(F)cc2)CC1
23	CN(C)N=Nc1nc2c(c(=O)n(C)c(=O)n2C)n1CC1CO1 (configuration not stated)
24	CC(=O)Nc1cccc(-c2cn3ccc(C)cc3n2)c1

assay / entry,17,18,19,20,21,22,23,24
NS1 inh,17%,3%,2%,·,-5%,6%,2%,1%
RE007 growth inh,-4%,13%,-6%,1%,7%,-2%,-4%,-12%
Cruzain inh noDet,·,·,-3%,·,20µM*,·,·,·
2A StopGo,-12%,-17%,1%,-5%,?,29%,-23%,65%[activator]
Cruzain inh Det,·,·,-5.8%,·,25µM*,·,·,·
Lassa entry inh,·,0%[46.1 µM],?,-6%[46.1 µM],0%,-8%,?,·
SARS PLpro yeast,12%,0%,3%,0%,-1%,1%,-1%,-2%
MARV entry inh,·,16%[46.1 µM],?,-2%,7%,6%[46.1 µM],?,·

25	O=C(NCCN1CCOCC1)C1CCC(CNS(=O)(=O)c2ccccc2)CC1 (configuration not stated)
26	CC(Sc1ccccc1)C(=O)NCC1COc2ccccc2O1 (configuration not stated)
27	CN(C)C(CNC(=S)Nc1ccc(Cl)cc1)c1cccnc1 (configuration not stated)
28	O=C(Nc1nnc(-c2ccc(Br)cc2)o1)c1cccc(N2C(=O)CCC2=O)c1
29	Cn1cccc1CNCCc1ccc(F)cc1
30	COC(=O)C1=C(C)Nc2c(c(=O)n(C)c(=O)n2C)C1c1cccs1 (configuration not stated)
31	O=C(NC1CCCC1)C(NS(=O)(=O)c1ccc(Br)s1)c1ccccc1 (configuration not stated)
32	CCOC(=O)C1(CCCc2ccccc2)CCN(CC(O)CO)CC1 (configuration not stated)

assay / entry,25,26,27,28,29,30,31,32
NS1 inh,-9%,·,·,·,4%,4%,13%,2%
RE007 growth inh,-18%,34%,-8%,-2%,0%,-5%,14%,-13%
Cruzain inh noDet,3%,·,·,·,?,-10%,-11%,·
2A StopGo,-8%,6%,14%,1%,9%,-9%,-7%,-11%
Cruzain inh Det,1.6%,·,·,·,0.0%,6.4%,-3.3%,·
Lassa entry inh,1%,-12%,-8%,-14%,-20%,14%,-3%,-5%
SARS PLpro yeast,19%,3%,-1%,13%,3%,0%,3%,0%
MARV entry inh,9%,17%,3%[46.1 µM],-6%,-21%,-8%,6%,14%[46.1 µM]

The closing three records of the section above lead into the next.
30	COC(=O)C1=C(C)Nc2c(c(=O)n(C)c(=O)n2C)C1c1cccs1 (configuration not stated)
31	O=C(NC1CCCC1)C(NS(=O)(=O)c1ccc(Br)s1)c1ccccc1 (configuration not stated)
32	CCOC(=O)C1(CCCc2ccccc2)CCN(CC(O)CO)CC1 (configuration not stated)
33	CC(C)(C)NC(=O)CSc1nc(O)cc(=O)[nH]1
34	CCOC(=O)c1c(NC(=O)C(Sc2ccccc2)c2ccccc2)sc(C(=O)N(C)C)c1C (configuration not stated)
35	COc1ccc(Cl)cc1NC(=O)Cn1cc2c(n1)CCC(C)C2 (configuration not stated)
36	CSc1cc(N2CCOCC2)nc(-c2ccccc2Cl)n1
37	COc1ccccc1CNC(=O)CSc1nc(C)cs1
38	COc1cccc(OCCSc2nc3ccccc3c(=O)[nH]2)c1
39	O=C(COC(=O)/C=C/c1ccccc1Cl)NC(=O)NC1CCCC1
40	COc1ccc(-c2nc3nc(C)cc(C)n3c2Nc2c(C)cccc2C)cc1

assay / entry,30,31,32,33,34,35,36,37,38,39,40
NS1 inh,4%,13%,2%,12%,?,·,-11%,-3%,·,·,·
RE007 growth inh,-5%,14%,-13%,-1%,9%,·,-11%,1%,5%,-9%,·
Cruzain inh noDet,-10%,-11%,·,11%,?,-11%,5%,·,·,·,-8%
2A StopGo,-9%,-7%,-11%,-12%,0%,-12%,-28%,12%,22%,-19%,-27%
Cruzain inh Det,6.4%,-3.3%,·,-4.3%,-2.5%,-9.6%,-2.3%,·,·,·,0.2%
Lassa entry inh,14%,-3%,-5%,1%,16µM*,1%[46.1 µM],-17%,·,?,-23%[46.1 µM],?
SARS PLpro yeast,0%,3%,0%,?,?,·,-4%,1%,2%,2%,·
MARV entry inh,-8%,6%,14%[46.1 µM],4%,?,4%[46.1 µM],?,·,?,-17%,?

41	COC(=O)c1c(NC(=O)c2ccc(S(=O)(=O)N3CCCC(C)C3)cc2)sc2c1CCN(C(C)C)C2 (configuration not stated)
42	COc1ccc(/C=N/NC(=O)c2ccncc2)cc1CN1CCN(c2ccc(F)cc2)CC1
43	COc1ccccc1NC(=O)N(CCN1CCCC1)Cc1cc2cc(C)ccc2[nH]c1=O
44	Cc1cc2c(nn1)CCc1nonc1-2
45	Nc1c(C(=O)OCC2CCCO2)c2nc3ccccc3nc2n1C1CCCC1 (configuration not stated)
46	Cc1ccc(C)c(NC(=O)C(C)N2C(=O)c3ccccc3C2=O)c1 (configuration not stated)
47	Cc1ccc(CN2CCc3nc(N4CCN(c5ncccn5)CC4)ncc3C2)cc1
48	O=C(CSc1nnc(-c2ccco2)o1)NC(=O)C1COc2ccccc2O1 (configuration not stated)
49	CCCn1c(SCC(=O)c2[nH]c(C)c(C(C)=O)c2C)n[nH]c1=O
50	Cc1cccc(-c2nc(SCC(=O)N(C)c3ccccc3)c3c(=O)n(C)c(=O)n(C)c3n2)c1

assay / entry,41,42,43,44,45,46,47,48,49,50
NS1 inh,·,·,·,1%,-204%,16%,·,-17%,1%,·
RE007 growth inh,·,-3%,1%,-2%,-13%,29%,·,18%,2%,·
Cruzain inh noDet,-6%,·,·,-6%,0%,·,13%,0%,·,17%
2A StopGo,-3%,-23%,-12%,11%,?,-7%,?,-24%,-18%,-6%
Cruzain inh Det,-0.5%,·,·,2.3%,-16%,·,-8.2%,1.8%,·,1.2%
Lassa entry inh,17%[46.1 µM],-14%,3%,7%,-20%,-5%[46.1 µM],?,-9%,15%,17%[46.1 µM]
SARS PLpro yeast,·,2%,·,6%,-6%,9%,·,-2%,0%,·
MARV entry inh,·,-5%,?,1%,4%,-4%[46.1 µM],·,4%,-24%[46.1 µM],·
